High-throughput results: PubChem, Fisher Drug Discovery Resource Center
NPYLR7 ag: mosquito NPYLR7 agonism; HEK293T NPYLR7/Galpha15, GCaMP6s calcium fluorescence; activation, % at 10 µM; hit rate 0.15% among 270,000; AID 1259423; in the data active = activation above about 40%;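 also: 0% = vehicle and 100% = reference agonist at the receptor; some compounds past the cut are filed as inactive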
NPYLR7 ag max-min: recorded beside NPYLR7 ag, whose call it bears; activation, %; measured here: Max-Min RFU normalised activation; some inactives read as strong as hits;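 span of the calcium signal over five minutes; 0% = vehicle and 100% = native peptide agonist; compound fluorescence can raise it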
* = called active by the depositor; & = joins results of further samples. This is a subset; the hit share may differ from the screen's.

SMILES	NPYLR7 ag	NPYLR7 ag max-min
CC1(C(=O)Nc2ccc3[nH]ncc3c2)CCN1C(=O)Cc1ccc(-c2ccccc2)cc1 (stereo not given)	-1	-5
COCc1cccc(C(=O)Nc2ccc(C(C)(C)C)cc2)c1	-8	-11
CC1(C(=O)NS(C)(=O)=O)CCN1C(=O)Cc1ccc(-c2ccccc2)cc1 (stereo not given)	4	0
CCN(CC)C(=O)CCC(=O)Nc1ccc(C(C)(C)C)nn1	10	6
CN(C)CCCN(C(=O)CN1C(=O)CCC1=O)c1nc2c(F)cccc2s1	-3	-4
CNS(=O)(=O)c1ccc(C(=O)NC(C)C)o1	-3	-1
Cc1ccccc1-c1nc(OC(C)C)nn1-c1ccc(NC(=O)C2C[C@H]2c2ccccc2)cc1 (stereo not given in full)	7	8
Cc1ccc(-c2nc(NCCNC(=O)C3CCCC3)c3ccccc3n2)cc1	3	7
COc1ccc(CN(Cc2cccc(C(F)(F)F)c2)Cc2nc(C(=O)NC(C)C)co2)cc1	19	33
O=C(NCCOc1ccc(F)cc1)C1CCN(Cc2nc3ccccc3[nH]2)CC1	-7	-9
COC(=O)c1[nH]ncc1CN(C)Cc1cc(-c2ccccc2)no1	9	6
O=C(C[C@@H]1C[C@@H]2C=C[C@H]1C2)N1CCn2nc(C(=O)N3CCCC3)cc2C1	1	-5
COCc1cc(CNC(=O)c2csc(-c3cccs3)n2)[nH]n1	5	3
COc1ccc(C(=O)Nc2ccc(Cl)c(-c3nc4cc(C)cc(C)c4o3)c2)cc1OC	1	-1
C=CCOCC(O)CN(Cc1c(-c2ccccc2)nn(C)c1Oc1cccc(F)c1)CC1CCCO1 (stereo not given)	9	9
C=CCn1c(CCN2CCCCC2)nnc1Sc1ncccc1C#N	2	1
COc1ccc(OC)c(CN(CCO)C(=O)c2ccsc2)c1	-6	-5
Cc1ccc(C(=O)NCc2ccc(S(N)(=O)=O)cc2)cc1	6	5
Cc1nc2nc(-c3cccs3)[nH]n2c(=O)c1C1CCS(=O)(=O)C1 (stereo not given)	7	2
CCSc1ncc(CN2CCN(c3nc(C)ncc3C)CC2)cn1	-11	-15
COc1cccc(OC)c1C(=O)NCc1nnc(SCc2ccc(F)cc2)n1-c1cc(Cl)ccc1C	14	14
COc1cc(C(=O)Oc2coc(CSc3nccn3C)cc2=O)cc(OC)c1OC	-4	-7
O=C1NC2(CCN(C(=O)Nc3cccc(F)c3)CC2)Nc2cccc(Cl)c21	3	7
Cc1ccccc1CO[C@]1(C(=O)NC2CC2)CC(OCc2cccc(Cl)c2)[C@H](O)[C@H](O)C1 (stereo not given in full)	31	36
CCOC(=O)c1cccc(OS(=O)(=O)Cc2ccccc2)c1	13	9
COc1ccc(CNC(=O)C(c2cccc(C)c2)N(C)C)c(F)c1F (stereo not given)	0	6
CSc1ccccc1NC(=O)CCC(=O)N1C[C@H](O)[C@@H](N2CCCCC2)C1	0	11
O=C(NCC1CCN(C(=O)C(Cl)(Cl)Cl)CC1)C(Cl)(Cl)Cl	-6	-11
Cc1ccc2c(C)c(C(=O)N3CCCC(CN4CCOCC4)C3)oc2c1C (stereo not given)	10	7
Cc1noc(C)c1S(=O)(=O)Nc1ccc2c(c1)OC1(CCCC1)O2	0	8
COc1ccc(N2C(=O)CN(C(=O)C(=O)c3ccccc3)CC23CCCC3)cc1	17	3
O=C(NCCCN1CCCC1=O)c1cc2n(n1)CCN(Cc1c(F)cccc1Cl)C2=O	26	13
Cc1cc(C)n(-c2ccc3cccc(Nc4cc(C#N)c(C#N)cc4[N+](=O)[O-])c3n2)n1	5	2
CCCCN(Cc1cccn1Cc1ccc(Br)cc1)C(=O)CN(CCOC)C(=O)NC1CCCCC1	6	8
Cn1nc(C(=O)Nc2ccc(-n3cccn3)cc2C(F)(F)F)ccc1=O	2	2
Clc1cnc(N2CCN(Cc3ccccc3Cn3cccn3)CC2)nc1	22	5
CS(=O)(=O)N1CCC(c2nn(CC(=O)OCc3ccccc3)c(=O)n2-c2cccs2)CC1	1	2
COc1cc(Cl)c(C)cc1NC(=O)C(C)OC(=O)c1ccc2c(c1)CCC(=O)N2 (stereo not given)	9	4
O=C(NC1CCCN(c2ccccc2)C1=O)c1ccc2nccn2c1 (stereo not given)	1	7
COc1cccc(C2Nc3ccccc3-c3nc4ccccc4n32)c1 (stereo not given)	8	5
CCN1CCN(c2nc(C)c3cc4c(cc3n2)CCC4)CC1	16	5
O=C(CSc1nccc(=O)[nH]1)CSc1nccc(=O)[nH]1	-5	-7
O=c1c2ccsc2ncn1Cc1cc2c(cc1Br)OCCO2	0	-3
O=P1(NCC2CCCO2)C=C(c2ccccc2)SC(c2ccccc2)=C1 (stereo not given)	0	19
CCCc1ccc(-c2nc(NC(=O)Cn3cnc4sccc4c3=O)sc2C)cc1	4	13
COc1ccc(N(C)C(=O)c2sc(Cl)nc2C)cc1	1	0
Cc1ccc(N2CC(C(=O)N(C)Cc3cnn(C)c3)CC2=O)c(F)c1 (stereo not given)	-3	-6
O=C(Nc1ccccc1N1CCOCC1)c1ccc(Br)cc1F	14	5
COc1cc(CSc2nc(=O)n3ccc(C)cc3n2)cc(OC)c1	10	9
COCC(=O)N1CCN(C(=O)c2cn(CC3CCCO3)cc3c(=O)n(-c4ccccc4)nc2-3)CC1 (stereo not given)	8	6
Cc1nc(CNc2nc(-c3ccc(Cl)cc3)nc3c2CNC3)cs1	3	2
Cc1ccc(-c2csc(-n3[nH]c(C)c(N=Nc4ccc(C(=O)O)cc4)c3=O)n2)cc1	1	-1
COc1cccc(F)c1-c1c(-c2ccccc2)ncn1CCc1cn[nH]c1	1	-1
CCn1ccc(=O)n(Cc2cc(C)cc(C)c2)c1=O	5	2
Cc1ccccc1C1CN(C(=O)NCc2ccc(O)c(F)c2)CCO1 (stereo not given)	-1	-3
CCNC(=S)N(Cc1ccccc1)Cc1c(-c2ccccc2)noc1N1CCC(C)CC1	4	7
Cc1nnc(SCC(=O)c2c(N)n(C3CC3)c(=O)[nH]c2=O)s1	-6	-1
CC1=NC2=C(C(=O)CC(c3ccccc3)C2)C(c2ccc(O)cc2)C1C(=O)OC1CCCCC1 (stereo not given)	-4	-5
N#Cc1ccsc1NC(=O)Cc1ccccc1C(F)(F)F	-23	-24
CSc1ccccc1OCc1cc(C(=O)N2CCc3sccc3C2)no1	5&22	11&4
Following part:
SMILES	NPYLR7 ag	NPYLR7 ag max-min
N#CCc1ccc(OCC(=O)Nc2cc(Br)ccc2N2CCOCC2)cc1	14	7
Cc1ccccc1C1(C(=O)NCC2COc3ccccc3O2)CCOCC1 (stereo not given)	8	9
CC(NC(=O)c1ccc(C#N)cc1)C(c1cccs1)N1CCCC1 (stereo not given)	1	-1
COc1cc(Br)c(CCNC(=O)COc2cccc(F)c2)cc1OC	2	26
Cc1ccc(-n2ncc3c(=O)n(NC(=O)c4ccco4)cnc32)cc1	4	2
CN(CCCNC(=O)C1C[C@@H](O)CN1C(=O)OCc1ccccc1)c1ccccc1 (stereo not given in full)	-10	-16
Cc1cc(C(F)(F)F)nn1CC(=O)Nc1ccc(Br)cc1OC(F)(F)F	-7	-12
CN(CC1CCCN(CCc2ccccc2F)C1)C(=O)c1cccnc1 (stereo not given)	1	-1
O=C(NCc1ccnc(N2CCCC2)c1)N1CCc2ccccc2C1	1	2
CCC(Cn1ccnc1)NC(=O)c1cnn2ccccc12 (stereo not given)	1	2
N#Cc1ccc(COc2cccc[n+]2[O-])cc1	4	0
O=c1cc(CCn2cccn2)nc(-c2ccc(CN3CCNCC3)cc2)[nH]1	-4	-6
c1ccc(Cc2nc(CNc3nncc(-c4cc5ccccc5o4)n3)cs2)cc1	-3	-9
COc1ccc(NC(=O)N2CCC3(CCCNC3)C2)c(C)c1 (stereo not given)	2	1
Cc1cccc(COC(CN2CCN(C(=O)c3cc4ccccc4s3)CC2)c2ccc(Cl)cc2)c1 (stereo not given)	-6	-7
CN(C)C(=O)c1ccc(NC(=O)CCc2ccco2)cc1	3	2
Cc1ccccc1Cn1c(C(=O)NCCc2ccccc2)cc2ccsc21	-1	6
O=C(c1ccc(Cl)cc1)N(CCN1CCOCC1)Cc1c(-c2ccccc2)noc1N1CCCC1	9	13
Cn1c(=O)c2c(nc3n2CC(C(C)(C)C)=NN3Cc2ccccc2Cl)n(C)c1=O	6	1
CCCSc1ncc(CN2CCN(C)C(=O)C2C)cn1 (stereo not given)	-4	-7
CC(=O)NCC1CN(C(=O)COc2ccc(CC#N)cc2)CCO1 (stereo not given)	1	2
CC1CCN(C(=O)C(C2CCCC2)N2CCN(C(=O)C3CCC3)CC2)CC1 (stereo not given)	-8	-7
CN=c1scc(-c2cc(C)n(-c3ccc(S(N)(=O)=O)cc3)c2C)n1C	6	5
CN(Cc1cnn(-c2ccccc2)c1)c1cc(CCN)ncn1	5	3
COC(=O)C1Cc2ccccc2N1C(=O)CC1C=CS(=O)(=O)C1 (stereo not given)	14	10
O=C1CC(Cc2ccc(C(=O)NCc3ccsc3)cc2)C(=O)N1 (stereo not given)	3	2
CCn1ncc2c1NCNc1c(cnn1CC)C2	-9	-12
COC(C)(C)Cn1ccnc1-c1cnc(-c2ccccn2)nc1	-1	-3
O=c1[nH]c(=O)n(-c2ccccc2)c2c1C(C(F)(F)F)(C(F)(F)F)N=C(c1ccncc1)N2	-2	2
CCOC(=O)c1c(C)c(C(=O)CN(C(=O)NCc2ccccc2)C2CC2)c(C)n1CC	-11	-4
COc1ccc(Cl)cc1NC(=O)CCC1CCCN(Cc2ccc(C)s2)C1 (stereo not given)	7	2
Cc1cc(N2CCN(c3ncnc4c3CCNC4)CC2)n2ncnc2n1	-3	0
CN(c1c([N+](=O)[O-])ncn1C)C1CCCCC1	-2	4
Cc1ccc2c(c1)cc(CN1CCC(CNC(=O)CC3CC3)C1)n2C (stereo not given)	0	1
O=C(C1CCC1)N(Cc1ccco1)Cc1nccn1Cc1ccccc1	-10	2
CCOc1ccc(-n2nnc(C(=O)OCc3nc(-c4ccc(C)cc4)oc3C)c2C)cc1	-9	-13
COc1ccccc1CNC(=O)C(C)N1CCN(C2CCSC2)CC1 (stereo not given)	6	3
CCN1CCCC1CN(CC1CCN(CCOC)CC1)C(=O)c1ccc(Cl)c(F)c1 (stereo not given)	7	5
O=C(c1cccs1)N(Cc1ccccc1Cl)CC1CC(c2ccccc2Cl)=NO1 (stereo not given)	3	18
CCc1ccc(OCCN(C)C(=O)c2ncccc2C)cc1	6	2
O=C(CN1CCCCC1)C12CC3CC(CC(C3)C1)C2	-5	-6
CCc1nc2ccc(C(=O)N3CCNC(=O)C3)cn2c1N(C=O)Cc1ccc(OC)cc1	24	22
COc1cccc(CN2CCC2(C)C(=O)Nc2cccc(Oc3ccccc3)c2)c1OC (stereo not given)	-2	-4
C#CCN(Cc1ccc(F)cc1)C(=O)C1CCCN(C(=O)N(C)C)C1 (stereo not given)	-3	-6
O=[N+]([O-])c1cc2c(cc1C=NNc1ncc(Cl)cc1Cl)OCO2	0	-2
COc1ccc(N2C(=O)/C(=C\C3CCCN3C(=O)OC(C)(C)C)N(C)C2=S)cc1 (stereo not given)	19	15
Cn1c(=O)c2c(SCC(=O)Nc3nccs3)nc(-c3ccccc3)nc2n(C)c1=O	-1	1
COc1ccc(C2c3cccn3CCCN2Cc2ccc(F)cc2)cc1 (stereo not given)	25	17
COc1ccc2nc(-c3ccc(C)c(NS(=O)(=O)c4ccccc4F)c3)cn2n1	-8	-12
COc1ccc(-c2nnc(NC(=O)C(NC(=O)Nc3ccc(C(C)C)cc3)C(C)C)s2)cc1 (stereo not given)	24	24
Cc1nnc(SCC(=O)NC23CC4CC(CC(C4)C2)C3)s1	4	2
CC(C)Cc1ncc2c(n1)CN(C(=O)c1ccccc1-n1cccn1)C2	-5	-8
CC(NCc1cn[nH]c1-c1ccc(F)cc1F)c1cnn(-c2ccccc2)c1 (stereo not given)	2	-2
CC(NS(=O)(=O)N(C)C1CCCCC1)c1ccc(OCc2cccnc2)cc1 (stereo not given)	19	16
O=C(C1CC=CCC1C(=O)N1CCc2ccccc2C1)N1CCOCC1 (stereo not given)	22	6
COc1ccc(F)c(CN2CCC(NS(C)(=O)=O)CC2)c1Cl	24	15

Part of the list above, field by field.
O=C(CN1CCCCC1)C12CC3CC(CC(C3)C1)C2
  NPYLR7 ag: -5 | NPYLR7 ag max-min: -6
COc1ccc(N2C(=O)/C(=C\C3CCCN3C(=O)OC(C)(C)C)N(C)C2=S)cc1 (stereo not given)
  NPYLR7 ag: 19 | NPYLR7 ag max-min: 15

Entries shown so far that contain an NH in an aromatic ring, in the order listed:
SMILES	NPYLR7 ag	NPYLR7 ag max-min
CC1(C(=O)Nc2ccc3[nH]ncc3c2)CCN1C(=O)Cc1ccc(-c2ccccc2)cc1 (stereo not given)	-1	-5
O=C(NCCOc1ccc(F)cc1)C1CCN(Cc2nc3ccccc3[nH]2)CC1	-7	-9
COC(=O)c1[nH]ncc1CN(C)Cc1cc(-c2ccccc2)no1	9	6
COCc1cc(CNC(=O)c2csc(-c3cccs3)n2)[nH]n1	5	3
Cc1nc2nc(-c3cccs3)[nH]n2c(=O)c1C1CCS(=O)(=O)C1 (stereo not given)	7	2
O=C(CSc1nccc(=O)[nH]1)CSc1nccc(=O)[nH]1	-5	-7
Cc1ccc(-c2csc(-n3[nH]c(C)c(N=Nc4ccc(C(=O)O)cc4)c3=O)n2)cc1	1	-1
COc1cccc(F)c1-c1c(-c2ccccc2)ncn1CCc1cn[nH]c1	1	-1
Cc1nnc(SCC(=O)c2c(N)n(C3CC3)c(=O)[nH]c2=O)s1	-6	-1
O=c1cc(CCn2cccn2)nc(-c2ccc(CN3CCNCC3)cc2)[nH]1	-4	-6
O=c1[nH]c(=O)n(-c2ccccc2)c2c1C(C(F)(F)F)(C(F)(F)F)N=C(c1ccncc1)N2	-2	2
CC(NCc1cn[nH]c1-c1ccc(F)cc1F)c1cnn(-c2ccccc2)c1 (stereo not given)	2	-2
